# Bead autofluor: counter-screen for toxin protease inhibitors: compound fluorescence; compound autofluorescence counterscreen, microsphere flow cytometry; stronger effect = higher value; fluorescence intensity (concentration not given with the values); 3.1% of 360,000 active;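 active means at least 3 SD above the mean of all compounds, about 16000 in these data; inconclusive means too few beads counted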;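 further: 100 nL of 1 mM stock went into each well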
# PrP 5UTR inh: inhibition of PrP 5' UTR reporter expression; cell-based PrP 5' UTR mRNA reporter, plate reader; inhibition, % (concentration not given with the values); 0.35% of 340,000 active; AID 488862, 2010;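 active means every replicate at 50% or more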;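 further: 0 = median of the neutral control wells; tested in H4 reporter cells; numbers are from one replicate; inactives centre near -14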
# Mtb hypoxia rep: PubChem AID 1159583; M. tuberculosis hypoxia-regulated fluorescent reporter, fluorescence; fluorescence inhibition, % (test concentration not listed); 0.1% of 300,000 active;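 active means 35 to 45% if threefold the growth effect, above 45% if 1.5-fold the growth effect; inactive means the rest, general growth blockers included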;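 further: wells of about 50 µL received 100 nL stock; 0% = vehicle wells and 100% = reference inhibitor wells; whole bacteria with a GFP reporter of the hypoxia response; strong numbers were not always called active; many hits fall short of the cut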
# BJeLR viability: MLPCN primary cell-based screen for lethality selective to Ras in HRASV12 cells. BJeLR (HRASV12) viability, CellTiter-Glo ATP luminescence, 48 h; reference of the scale not given here. inhibition, % (test concentration not listed). 0.17% of 300,000 active;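 active means replicate mean above 50%; inconclusive means above 50% but judged a plate artefact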;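 further: 50 nL library stock added to about 25 µL; numbers are from one replicate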
# Sa RN4220 lethal: growth inhibition of S. aureus RN4220, primary screen, OD600; 16 h; inhibition, % (no concentration beside the values); 0.33% of 330,000 active; AID 1259311, 2017;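 active means z-score of -3 or lower and OD600 up to 0.18 on both plates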;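 further: plate controls were untreated cells for no effect and reference antibiotic for full effect; stock transfer was 100 nL into about 80 µL; one replicate is shown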
# Sa ugtP lethal: growth inhibition of ugtP-null S. aureus, primary screen, RN4220 ugtP deletion, OD600; 16 h; some inactives read as strong as hits; growth inhibition, % (concentration not given with the values); 0.54% of 330,000 active;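 active means z-score under -3 and OD600 up to 0.15 on both plates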;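 further: plate controls were untreated wells for no effect and antibiotic for full effect; wells of about 80 µL received 100 nL stock; the first replicate is given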
# Mtb hypoxia rep growth: second read-out of Mtb hypoxia rep, no call of its own (marks repeat the call); growth inhibition, %; measured here: M. tuberculosis growth (absorbance);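 0% = vehicle and 100% = reference antibiotic; read after six days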
# The depositor's hits bear a star; u = inconclusive; x = no result given; & = joins results of further samples.
SMILES,Bead autofluor,PrP 5UTR inh,Mtb hypoxia rep,Mtb hypoxia rep growth,BJeLR viability,Sa RN4220 lethal,Sa ugtP lethal
O=c1ccc2cc(S(=O)(=O)Nc3ccc(Br)cc3)ccc2o1,3907,0,13,1,6,4.6,12
CC(CCC(C)OC(=O)c1ccccc1C(=O)O)OC(=O)c1ccccc1C(=O)O (stereo not drawn),3882,-12,17,8,1,8.1,7
COC(=O)C1CCN(c2cc(=O)n(Cc3ccc(F)cc3)c(=O)[nH]2)CC1,7932,-5,8,-3,0,2.8,11
COCCN(C(=S)Nc1cc(C)cc(C)c1)C(C)c1ccco1 (stereo not drawn),4117,-12,-7,-8,1,1.0,0
CC(=O)c1ccc(OCC(O)CN2CCN(S(=O)(=O)c3c(C)cc(C)cc3C)CC2)cc1 (stereo not drawn),3606,-14,10,10,-7,3.3,3
COc1cc(/C=N/NC(=O)c2cccnc2)ccc1OS(=O)(=O)c1ccc(C)cc1,2510,-4,x,x,3,x,x
COc1ccccc1N1CCN(S(=O)(=O)CCNC(=O)C2CCCCC2)CC1,4747,-11,-1,1,0,4.6,6
COc1cc(/C=N/NC(=O)c2ccncc2)ccc1OCCN1CCCCC1,2578,-23,x,x,-9,x,x
Cc1cc(C)cc(OC(=O)CCN2C(=O)c3ccccc3C2=O)c1,10506,-18,10,-5,9,3.7,84*
O=C(c1ccc(Oc2ccc([N+](=O)[O-])cc2)cc1)N1CCCCCC1,3022,-5,1,2,16,3.3,3
COC(=O)c1c(C)[nH]c(C(=O)CSc2ncnc3sc(-c4ccccc4)cc23)c1C,1956,-5,-1,1,5,0.0,-7
Cn1c(=O)cc(SCC(=O)N2CCOCC2)c2ccc(Cl)cc21,9433,-25,4,1,-5,-0.4,8
CCCCn1c(C(C)NC(=O)c2cccs2)nc2ccccc21 (stereo not drawn),4596,-15,-1,2,2,-0.4,-3
CCN(Cc1cnn(C)c1)C(=O)CC1C(=O)NCCN1Cc1cccc(OC)c1OC (stereo not drawn),2589,-14,0,0,-3,6.1,12
O=C(NC1CCCCC1)C(c1ccncc1)N(C(=O)c1csnn1)c1ccccc1 (stereo not drawn),3137,-11,7,0,-3,1.6,2
COc1cc2cc(CN(Cc3cccnc3)C(=O)Nc3ccccc3)c(=O)[nH]c2cc1OC,4315,-10,-1,10,-2,-2.8,0
CCCC1(CCC)NC(=O)N(CC(=O)Nc2ccccc2OC)C1=O,3772,-14,-19,6,-3,-1.1,-4
O=C(NC1CCCC1)c1cc2c(ccc3ccccc32)o1,2891,-43,x,x,5,6.6,-8
Nc1ccc2nc[nH]c2c1,4359,-17,-8,-6,5,5.1,-7
Cc1ccc(N2CCOCC2)c2c1C(=O)c1ccccc1C2=O,1916,-2,5,14,2,4.7,0

# 2 records picked at random from those above:
SMILES,Bead autofluor,PrP 5UTR inh,Mtb hypoxia rep,Mtb hypoxia rep growth,BJeLR viability,Sa RN4220 lethal,Sa ugtP lethal
Cc1ccc(N2CCOCC2)c2c1C(=O)c1ccccc1C2=O,1916,-2,5,14,2,4.7,0
COC(=O)c1c(C)[nH]c(C(=O)CSc2ncnc3sc(-c4ccccc4)cc23)c1C,1956,-5,-1,1,5,0.0,-7

# Following part:
SMILES,Bead autofluor,PrP 5UTR inh,Mtb hypoxia rep,Mtb hypoxia rep growth,BJeLR viability,Sa RN4220 lethal,Sa ugtP lethal
c1ccc2c(c1)nc(N1CCOCC1)c1nnnn12,5805,-21,-8,1,-21,4.1,7
CCCS(=O)(=O)N1CCN(Cc2ccccc2OCC)CC1,3852,-3,8,7,1,0.9,-2
CCCCCCCC(=O)OCC(=O)[C@@]1(O)CCC2C3CCC4=CC(=O)CC[C@]4(C)C3C(O)C[C@@]21C (stereo partly drawn),x,x,-1,2,x,3.6,-2
COCCNC(=S)NC1CC2CCCC(C1)N2Cc1ccco1 (stereo not drawn),7146,-10,7,2,10,7.3,16
O=C(CSc1nc2ccccc2c(=O)n1Cc1ccco1)N1CCCC1,2492,-16,11,2,-3,4.7,1
CCCc1[nH]nc2c1C(c1ccc(O)cc1OCC)C(C#N)=C(N)O2 (stereo not drawn),4658,-1,x,x,5,-3.2,2
CCCCN(CC)CCNC(=O)c1cc2c(=O)n(C)c3ccccc3c2n1C,4430,-1,x,x,8,1.9,-3
CCCOc1c(Br)cc(C(=O)NCC)cc1OC,3005,-15,x,x,-2,-1.7,16
O=C(Nc1cccc(-c2csc(Nc3ccccc3)n2)c1)c1ccccc1,3972,-21,12,12,-7,23,37
COc1ccc(CNC(=O)CN(CC2CCCO2)C(=O)CNS(=O)(=O)c2ccc(C)cc2)cc1 (stereo not drawn),2585,-26,x,x,-3,0.9,1
CCN1CC2C3C(=O)N(C)C(=O)C3[C@](C)(C1=O)N2C(=O)c1ccc(C(C)(C)C)cc1 (stereo partly drawn),x,x,18,4,x,8.2,7
CCN(CC)C(=O)CN1C(=O)C(=O)c2ccccc21,4598,-9,0,6,0,4.5,0
Cc1ccccc1NC(=S)Nc1ccc2[nH]c(=O)[nH]c2c1,4589,-16,7,1,-14,13,4
COc1ccc(C(=O)NCC(=O)OCC(=O)Nc2sccc2C#N)cc1OC,5320,-37,4,2,-9,0.6,-1
COc1ccc(/C=N/NC2=NS(=O)(=O)c3ccccc32)cc1,3594,-17,x,x,-8,x,x
COc1ccc(C(=O)C2CCN(C(=O)c3ccc(OC)cc3)CC2)cc1,3341,-40,11,-3,8,3.1,13
O=C(O)CSc1nnc(C2CC2)n1-c1ccccc1,3816,-15,13,12,-5,7.4,-3
COc1ccc(S(=O)(=O)N2CCCC(C(=O)N3CCOCC3)C2)cc1C (stereo not drawn),2867,-17,x,x,8,-12,-2
O=[N+]([O-])c1ccc(N2CCN(CCO)CC2)cc1NCc1ccco1,2480,-23,6,6,5,2.9,1
O=C(c1cccnc1)C1CCCN(Cc2nc(-c3cnccn3)no2)C1 (stereo not drawn),6221,x,-1,-3,-2,4.0,1

# Compound profiles, as listed above. Order of screens: Bead autofluor	PrP 5UTR inh	Mtb hypoxia rep	Mtb hypoxia rep growth	BJeLR viability	Sa RN4220 lethal	Sa ugtP lethal
# Entry for `COc1ccc(C(=O)C2CCN(C(=O)c3ccc(OC)cc3)CC2)cc1` : 3341	-40	11	-3	8	3.1	13
# Entry for `COc1cc(/C=N/NC(=O)c2cccnc2)ccc1OS(=O)(=O)c1ccc(C)cc1` : 2510	-4	x	x	3	x	x
# Entry for `O=C(c1ccc(Oc2ccc([N+](=O)[O-])cc2)cc1)N1CCCCCC1` : 3022	-5	1	2	16	3.3	3
# Entry for `COC(=O)c1c(C)[nH]c(C(=O)CSc2ncnc3sc(-c4ccccc4)cc23)c1C` : 1956	-5	-1	1	5	0.0	-7
# Entry for `O=C(Nc1cccc(-c2csc(Nc3ccccc3)n2)c1)c1ccccc1` : 3972	-21	12	12	-7	23	37

# More compounds
SMILES,Bead autofluor,PrP 5UTR inh,Mtb hypoxia rep,Mtb hypoxia rep growth,BJeLR viability,Sa RN4220 lethal,Sa ugtP lethal
CC(C)(C)n1nc2c(c1NC(=O)c1ccc(S(=O)(=O)N3CCCC3)cc1)CSC2,11138,1,x,x,-5,x,x
CCOc1ccc(NC(=O)Cc2cccc3ccccc23)c([N+](=O)[O-])c1,2347,-17,6,0,1,11,8
Cc1ccc(S(=O)(=O)N2CCNC(=O)CC2)cc1,3799,-38,8,1,x,3.5,4
C=CCOC(=O)C1=C[C@H](c2ccc3c(c2)OCO3)C[C@H](OCCCCO)O1,3777,-8,x,x,-4,x,x
CCOC1OC(C(=O)O)=CC(C)C1CCCO (stereo not drawn),x,x,-13&3,-4&6,x,0.0&6.2,-1&-5
O=C(c1cc2cc(Cl)ccc2[nH]1)N1CCC2(CC1)OCCO2,4251,-7,7,-2,5,3.7,-2
COc1cc(CC(=O)OCC(=O)N2CC(C)CC(C)C2)cc(OC)c1OC (stereo not drawn),2997,-14,2,-5,8,3.9,1
Cc1ccc2c(c1)nnn2C1CCN(S(=O)(=O)c2ccc(C(=O)O)cc2)CC1,3898,-33,15,3,1,6.9,-64
O=C(CNC(=O)c1ccc(Cl)cc1)OCC(=O)c1ccc2c(c1)OCCO2,4222,-21,6,7,-1,3.5,5
CC1(C)Cc2c(sc3nc(N/N=C/c4ccccc4)[nH]c(=O)c23)CO1,2116,-22,x,x,-4,x,x
Cc1ccc(N=C2CCCN2Cc2ccccc2)c(C#N)c1,7308,-34,14,13,3,4.4,7
COc1ccc2c(-c3ccccc3)cc(=O)[nH]c2c1,10503,x,11,10,-4,4.2,-4
COC(=O)C1=C(c2c(C)noc2C)CC2CCC1N2C(=O)NCCOc1ccc(OC)cc1 (stereo not drawn),x,x,-3,10,x,1.5,-5
O=C(CNS(=O)(=O)c1ccc(Br)s1)NC1CCCc2ccccc21 (stereo not drawn),2214,-23,-14,6,0,1.2,-13
CN1CCN(C2=C(Cl)C(=O)N(C3CCCCC3)C2=O)CC1,8680,-12,-15,9,-3,-1.2,-1
COc1ccc(-c2ccnc3nc(-n4cccc4)nn23)cc1,20861*,-63,-7,4,8,1.5,-5
CCOC(=O)C1CCCN(C(=O)c2ccccc2Oc2ccccc2)C1 (stereo not drawn),u,-29,3,-2,1,2.9,-4
CCCN(CC(=O)Nc1ccccc1OC)C(=O)c1ccc(S(=O)(=O)NCc2ccco2)cc1,6641,-32,3,1,x,2.1,11
O=C(CCNS(=O)(=O)c1ccccc1C(F)(F)F)NCCCc1ccccc1,4335,-3,13,-2,x,6.3,9
O=C(O)c1cc(NS(=O)(=O)c2ccc3ccccc3c2)ccc1O,3660,-14,12,5,-4,-0.3,1
COc1ccc(-c2cn3cc(Br)cnc3n2)cc1,3189,-41,16,14,-4,10,6
Cc1cc(N2CCOCC2)nc2ccccc12,3293,-23,x,x,0,-9.8,-7
CC(Oc1ccc(F)cc1)C(=O)N(CCC1=CCCCC1)c1c(N)n(Cc2ccccc2)c(=O)[nH]c1=O (stereo not drawn),5527,-8,-8,-4,-3,-3.8,-7
O=C(COc1ccccc1)N1CCN(C(=O)COc2ccccc2)CC1,5513,-12,14,4,-8,0.5,5
Cc1ccc(CNC(=O)c2cc3c(=O)n4ccccc4nc3n(Cc3ccco3)c2=N)cc1,3533,-8,-3,-2,7,0.0,-4
CCN(CC)S(=O)(=O)c1ccc(N2CCN(C)CC2)c(NC(=O)CN2C(=O)NC3(CCCCC3)C2=O)c1,6373,2,2,-2,x,1.9,-2
CC1CCCC(C)N1S(=O)(=O)c1ccc(NC(=O)CCn2cnc3ccccc3c2=O)cc1 (stereo not drawn),7838,x,3,-2,-3,14,1
O=C(O)c1ccc(CNCc2ccc(F)cc2)cc1,2106,-14,14,6,6,3.3,4
O=C(NCc1ccc(F)cc1)c1ccncc1,4036,-17,7,1,11,7.0,7
COc1cccc(CCc2nnc(CCC(=O)N3CCN(Cc4ccccn4)CC3)o2)c1,4587,-12,4,0,4,-1.4,-4
CCCCCSc1ncccc1C(=O)O,4443,-5,-1,6,3,5.6,18
CCc1ccc(C(=O)NNC(=O)C2CCN(c3ncnc4sc(C)c(C)c34)CC2)cc1,4782,-3,4,-7,-5,54,1
CC(C)N(C#N)c1nc(N2CCOCC2)nc(N2CCOCC2)n1,4349,-25,x,x,-3,2.2,4
CN(C)S(=O)(=O)c1ccc(NC(=O)c2c(F)cccc2Cl)cc1,4560,4,x,x,8,3.4,3
Nc1nc2ccccc2n1/N=C/c1cccnc1,3618,-18,x,x,3,x,x
CSCCC(NC(=O)COc1ccccc1)C(=O)N1CCCC(C)C1 (stereo not drawn),5266,-13,-5,-4,1,-1.8,1
S=C(NCCN1CCOCC1)NC1CCCCC1,5381,-15,1,4,-4,-0.5,1
CC1CN(C(=O)CCC(=O)N2CCOCC2)c2ccccc2O1 (stereo not drawn),4356,-24,4,4,-1,-9.5,7
Cc1ccc(C(=O)NC(=S)Nc2ccccc2N2CCOCC2)cc1C,6074,-6,-6,15,-8,-6.7,33
O=C(NN1C(=O)c2cc(Br)ccc2NC1c1ccccc1Cl)c1ccncc1 (stereo not drawn),2016,1,x,x,-5,x,x
CC(C)CN(C)C(=O)CC1C(=O)NCCN1C (stereo not drawn),4443,-9,4,-2,-3,3.5,7
COc1cccc(-c2nn(-c3ccccc3)cc2C(=O)O)c1,2794,3,3,3,-2,3.3,-4
